Bioassay records deposited in PubChem by Broad Institute.
BJeLR viability = compounds reducing viability of BJeLR cells | BJeLR fibroblasts viability, CellTiterGlo ATP luminescence, 48 h; HRASV12, hTERT and SV40 LT/ST transformed | viability loss activity score, % (concentration not given with the values) | actives 0.64% (n = 30,000) | AID 2275; in the data active = viability loss activity score above about 50%; about a fifth of its hits are not listed in these tables;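 also: higher score means fewer live cells and less ATP luminescence; stock transfer was 50 or 100 nL into about 30 µL; 0% = vehicle wells and 100% = a reference killing control; one replicate is shown; the record names a cut of 85%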
A1 inhib = inhibitors of A1. MEF A1-2A-BIM cells, caspase-Glo luminescence, 3 h; percent of clofoctol signal, DMSO as zero. caspase activation, % (concentration not given with the values). actives 0.51% (n = 21,000);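 active = most replicate scores above 10, or exactly half above 10 with mean activity above 10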;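 also: effector caspase 3 and 7 activity cleaving a DEVD luciferin substrate; 50 nL library stock added to about 30 µL; numbers are from one replicate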
An asterisk follows results filed as active; . = not tested or not shown.

smiles	BJeLR viability	A1 inhib
C[C@H](CO)N1C[C@H](C)[C@H](CN(C)CC2CCCCC2)Oc2ccc(NC(=O)c3ccncc3)cc2C1=O	-1.7	0.1
COc1ccc(NC(=O)Nc2cccc3c2O[C@@H](CN(C)Cc2ccc4c(c2)OCO4)[C@@H](C)CN([C@@H](C)CO)C3=O)cc1	0.8	.
Cc1ccc(-n2nc3c(c2NC(=O)COc2ccc(Cl)cc2)CSC3)c(C)c1	-2.0	-0.1
COc1ccc(C2C(=O)c3cc(OC)c(OC)cc3C2c2ccccc2)cc1OC (stereo not given)	0.6	0.1
CNC[C@H]1Oc2ccc(NC(=O)Cc3cn(C)c4ccccc34)cc2C(=O)N([C@@H](C)CO)C[C@H]1C	1.5	-0.4
N#Cc1ccccc1Cn1cc(/C=C2\NC(=O)NC2=O)c2ccccc21	-2.5	0.5
Cc1noc(C)c1NC(=O)N(C)C[C@H]1Oc2c(NS(=O)(=O)c3cn(C)cn3)cccc2C(=O)N([C@H](C)CO)C[C@H]1C	-1.0	.
Nc1ccc2nc(SCc3cccc(F)c3)sc2c1	-2.8	-1.2
N#Cc1ccc(CSc2nc(-c3cccs3)c3c(c2C(=O)O)CCCC3)cc1	-2.2	0.4
C[C@@H]1CN([C@@H](C)CO)C(=O)c2cccc(NC(=O)c3ccc(-c4nccs4)cc3)c2O[C@@H]1CN(C)Cc1ccc(Cl)c(Cl)c1	-1.9	.
Cc1noc(C)c1NC(=O)N(C)C[C@@H]1Oc2ccc(NS(=O)(=O)c3ccc(F)cc3)cc2C(=O)N([C@H](C)CO)C[C@H]1C	-4.0	0.6
O=C(NCC1COc2ccccc2O1)c1ccc2c(Cl)c3c(nc2c1)CCCC3 (stereo not given)	-11	.
C[C@H](CO)N1C[C@H](C)[C@@H](CN(C)Cc2ccccc2)Oc2ccc(NC(=O)Nc3ccccc3)cc2C1=O	-1.1	-0.1
CCn1c2ccccc2c2cc(NC(=O)COc3ccc(OC)cc3)ccc21	0.7	.
C[C@H]1CN([C@@H](C)CO)C(=O)c2cc(NC(=O)Cc3ccccc3)ccc2O[C@@H]1CN(C)Cc1ccc(C(=O)O)cc1	3.6	-0.3
COc1ccc2c(C)cc(=O)oc2c1	1.4	-0.6
CCC(C)OC(=O)COc1ccc2c(=O)c(-c3ccc(OC)c(OC)c3)c(C(F)(F)F)oc2c1 (stereo not given)	-2.1	-0.4
CC1=C(C(=O)c2ccccc2)C(c2ccc(C)cc2)NC(=O)N1 (stereo not given)	18	.
COc1ccc(NC(=O)N(C)C[C@@H]2Oc3ccc(NC(=O)Nc4ccc5c(c4)OCO5)cc3C(=O)N([C@H](C)CO)C[C@H]2C)cc1	-0.4	1.8
CCCSc1nc2c([nH]c3ccccc32)c(=O)n1-c1ccc(F)cc1	2.3	.
CC(C)NC(=O)N(C)C[C@@H]1Oc2c(NS(C)(=O)=O)cccc2C(=O)N([C@H](C)CO)C[C@H]1C	-0.5	.
Cc1nn(CC(N)=S)c(C)c1Br	1.1	-0.3
C[C@@H]1CN([C@@H](C)CO)C(=O)c2cc(NC(=O)NC3CCCCC3)ccc2O[C@H]1CN(C)CC1CCCCC1	-1.1	-0.6
CCc1ccc(NS(C)(=O)=O)cc1	0.2	0.5
C=C(CCCCCCCC(=O)O)C(=O)OC	0.1	-0.3
CCN(CC)C(=O)COc1ccc2ccccc2c1Br	-1.0	-0.1
COc1ccc(NC(=O)Cn2c(-c3ccccc3)cn(-c3ccc(C)cc3)c2=O)cc1	-0.2	.
O=C(Nc1ccc2c(c1)OCCO2)C1Cc2ccccc2N1C(=O)OCc1ccccc1 (stereo not given)	-5.8	0.3
C[C@H]1CN([C@@H](C)CO)C(=O)c2cc(NC(=O)C3CC3)ccc2O[C@@H]1CN(C)S(=O)(=O)c1ccc(Cl)cc1	-5.6	0.5
O=C(CSCc1ccccc1)Nc1ccccc1C(=O)NCc1ccccc1	3.3	0.2
CCN(c1ccc(F)cc1)S(=O)(=O)c1cccc2nsnc12	-1.3	.
CC(C)CC(NC(=O)Nc1cccc2ccccc12)C(=O)O (stereo not given)	7.5	-0.8
Cc1cc(C)nc(N2CC(=O)N=C2N)n1	1.4	.
O=C(c1ccc(CS(=O)c2ccc(Cl)cc2)o1)N1CCCC1 (stereo not given)	1.5	.
C[C@@H]1CN([C@@H](C)CO)C(=O)c2cccc(NC(=O)C3CCCCC3)c2O[C@@H]1CN(C)Cc1ccc(C(F)(F)F)cc1	-3.1	.
O=C(NCCc1ccsc1)c1cnn2ccccc12	0.3	0.0
CCCCN1C(=O)/C(=C2\SC(=Nc3ccc(Cl)cc3)N(C)C2=O)c2ccccc21	-1.4	0.1
C[C@@H]1CN([C@H](C)CO)C(=O)c2cccc(NC(=O)C3CCOCC3)c2O[C@H]1CN(C)Cc1ccc(C(F)(F)F)cc1	1.9	.
O=S(=O)(c1cccs1)N1CCC(C(c2ccccc2)c2ccccc2)CC1	3.3	-0.5
C=CC(C)(C)C12CC3C(=O)NC(Cc4cnc[nH]4)C(=O)N3C1Nc1ccccc12 (stereo not given)	-5.8	0.1
C[C@H]1CN([C@@H](C)CO)C(=O)c2cc(NC(=O)Cc3ccccc3)ccc2O[C@H]1CN(C)Cc1ccc(C(F)(F)F)cc1	-4.3	0.7
COc1ccc(NC(=O)Nc2cccc3c2O[C@H](CN(C)Cc2ccccc2)[C@H](C)CN([C@@H](C)CO)C3=O)cc1	0.3	.
Cn1c(=O)c2cc(C(=O)NCC3CCCO3)sc2c2ccc(Cl)cc21 (stereo not given)	-11	.
Cc1cc(C)nc(Nc2ncc(O)n2-c2ccc(Cl)c(Cl)c2)n1	-1.8	-0.3
COc1ccc(-n2nc(C(=O)NCC(=O)NCc3ccccc3OC)c3ccccc3c2=O)cc1	-3.7	.
C[C@@H]1CN([C@@H](C)CO)C(=O)c2cc(NC(=O)Nc3ccc(F)cc3)ccc2O[C@@H]1CN(C)C(=O)NC1CCCCC1	-2.9	-0.7
CCn1cc(C(=O)Nc2cccc(OC)c2)c2cc(OC)c(OC)cc2c1=O	-4.6	.
O=C(CNC(=S)N(Cc1ccccc1F)C1CCCCC1)N1CCc2ccccc21	2.3	-0.4
COc1ccc(NC(=O)Nc2ccc3c(c2)C(=O)N([C@H](C)CO)C[C@@H](C)[C@@H](CN(C)Cc2ccc(C(=O)O)cc2)O3)cc1	-3.6	-0.3
C[C@@H]1CN([C@@H](C)CO)C(=O)c2cc(NC(=O)CCC(F)(F)F)ccc2O[C@H]1CN(C)Cc1ccccc1	1.4	-0.4

The list goes on.
smiles	BJeLR viability	A1 inhib
Cn1cnnc1-c1cccc(NC(=O)C(c2ccccc2)c2ccccc2)c1	-6.5	0.4
Cc1noc(C)c1S(=O)(=O)Nc1cccc2c1O[C@@H](CN(C)C(=O)NC(C)C)[C@@H](C)CN([C@@H](C)CO)C2=O	-12	.
O=C(CSc1cn(CC(=O)N2CCOCC2)c2ccccc12)N1CCOCC1	3.7	0.2
Cc1ccc(NC(=S)N2CCn3c4c(c(=O)c5cc(C)ccc53)CCC42)cc1 (stereo not given)	-1.0	.
COc1ccc(C(NC(=O)C2CC=CCC2C(=O)O)c2ccccc2)cc1 (stereo not given)	2.5	0.7
CCCNC(=O)Cn1c(C(=O)OC)ccc1-c1ccco1	-0.2	0.4
C[C@H]1CN([C@@H](C)CO)C(=O)c2cccc(NS(=O)(=O)c3cccs3)c2O[C@H]1CN(C)C	0.9	.
C[C@H]1CN([C@@H](C)CO)C(=O)c2cccc(NS(=O)(=O)c3ccc(Cl)cc3)c2O[C@@H]1CN(C)Cc1ccc(C(=O)O)cc1	1.9	.
C[C@@H]1CN([C@H](C)CO)C(=O)c2cccc(NC(=O)Nc3ccc4c(c3)OCO4)c2O[C@H]1CN(C)Cc1ccc(C(F)(F)F)cc1	-1.5	.
Cc1ccc(S(=O)(=O)N(C)C[C@@H]2Oc3c(NC(=O)c4cnccn4)cccc3C(=O)N([C@@H](C)CO)C[C@@H]2C)cc1	-3.3	.
C/C=C1\CC(C)(CC)C(C#N)(C#N)C(N)=C1C#N (stereo not given)	3.4	-1.1
C[C@@H]1CN([C@H](C)CO)C(=O)c2cc(NC(=O)Nc3cccc4ccccc34)ccc2O[C@H]1CN(C)S(=O)(=O)c1cccs1	-4.3	0.9
CCN(Cc1ccccc1)S(=O)(=O)c1ccc(C(=O)Nc2nnc(COC)o2)cc1	-2.1	.
COc1ccc(OC)c(N/C=C(\C#N)c2nc(-c3cc4ccccc4oc3=O)cs2)c1	-2.1	0.0
C[C@H]1CN([C@@H](C)CO)C(=O)c2cccc(NS(=O)(=O)c3ccccc3)c2O[C@H]1CN(C)Cc1ccc2c(c1)OCO2	-12	.
C[C@@H]1CN([C@H](C)CO)C(=O)c2cccc(NC(=O)Nc3ccc(F)cc3)c2O[C@@H]1CN(C)S(=O)(=O)c1ccccc1	-1.2	.
COc1ccc(C2C(C(=O)NCc3ccccn3)c3ccccc3C(=O)N2C)cc1 (stereo not given)	-2.9	.
Cc1cc(C)c(-n2c(SCCS(=O)(=O)c3ccc(F)cc3)n[nH]c2=O)c(C)c1	-2.0	0.5
C=C1CC[C@@H]2[C@](C)(CO[C@@H]3O[C@H](CO)[C@@H](O)[C@H](O)[C@H]3O)CCC[C@@]2(C)[C@@H]1CCC1=CCOC1=O	-0.3	-0.4
NCCCCNS(=O)(=O)c1ccc2ccccc2c1	-0.8	0.9

Full records, quoted from the list. Order of values: BJeLR viability, A1 inhib
C[C@@H]1CN([C@H](C)CO)C(=O)c2cc(NC(=O)Nc3cccc4ccccc34)ccc2O[C@H]1CN(C)S(=O)(=O)c1cccs1 across the screens: -4.3, 0.9
C[C@@H]1CN([C@H](C)CO)C(=O)c2cccc(NC(=O)Nc3ccc(F)cc3)c2O[C@@H]1CN(C)S(=O)(=O)c1ccccc1 across the screens: -1.2, .
Cc1cc(C)c(-n2c(SCCS(=O)(=O)c3ccc(F)cc3)n[nH]c2=O)c(C)c1 across the screens: -2.0, 0.5
NCCCCNS(=O)(=O)c1ccc2ccccc2c1 across the screens: -0.8, 0.9

Continued:
smiles	BJeLR viability	A1 inhib
Cc1noc(C)c1S(=O)(=O)Nc1cccc2c1O[C@@H](CN(C)C(=O)Nc1ccc(C(F)(F)F)cc1)[C@@H](C)CN([C@H](C)CO)C2=O	0.0	.
C[C@H]1CN([C@@H](C)CO)C(=O)c2cc(NC(=O)CCN3CCOCC3)ccc2O[C@H]1CN(C)CC1CC1	0.5	-0.3
CCCC1CCC(c2ccc(C(N)=O)cc2)CC1 (stereo not given)	-3.1	0.1
CC1CCN(c2nnc(N)s2)CC1	-3.3	0.0
COC1=CC(=O)O[C@@H](CCc2ccccc2)[C@H]1O	0.5	-0.2
COc1ccc(NC(=O)N(C)C[C@H]2Oc3c(NC(=O)C4CC4)cccc3C(=O)N([C@@H](C)CO)C[C@H]2C)cc1	3.3	.
C[C@H]1CN([C@@H](C)CO)C(=O)c2cccc(NC(=O)c3ccncc3)c2O[C@H]1CN(C)Cc1ccccc1	8.8	.
COc1ccc(-c2cc(=NC(CC(C)C)C(=O)O)c3cc(C)ccc3o2)cc1 (stereo not given)	-4.5	.
C[C@H](CO)N1C[C@H](C)[C@@H](CN(C)C(=O)Nc2ccc(C(F)(F)F)cc2)Oc2c(NS(=O)(=O)c3cccs3)cccc2C1=O	5.8	.
COc1ccc(CNC(=O)CC2Oc3ccccc3NC2=O)cc1 (stereo not given)	-6.9	0.0
COc1ccc(NC(=O)c2ccc3c(=O)n(CCc4ccccc4)c(=S)[nH]c3c2)cc1	1.3	-0.2
O=C(OC1OC(CO)C(O)C(O)C1O)c1c(O)cc(O)cc1/C=C/c1ccccc1 (stereo not given)	-5.3	1.2
C[C@@H]1CN([C@@H](C)CO)C(=O)c2cc(NC(=O)Nc3cccc4ccccc34)ccc2O[C@H]1CN(C)Cc1ccc(C(=O)O)cc1	-2.4	3.6
CCOc1ccc2c(c1)sc(=NC(=O)c1ccc(S(=O)(=O)N3CCCCC3C)cc1)n2CC (stereo not given)	6.1	-1.9
C[C@@H]1CN([C@H](C)CO)C(=O)c2cccc(NC(=O)Nc3ccc4c(c3)OCO4)c2O[C@H]1CN(C)C(=O)Nc1ccccc1	5.8	.
COCC(C)NC(=O)c1cccc(OC)c1 (stereo not given)	-7.3	0.2
CC(C)S(=O)(=O)c1csc(NC(=O)N2CCCCC2)c1Cl	2.2	-0.6
C[C@H]1CN([C@@H](C)CO)C(=O)c2cccc(NC(=O)Nc3ccc4c(c3)OCO4)c2O[C@@H]1CN(C)C(=O)Nc1ccc(C(F)(F)F)cc1	-1.4	.
Cc1ccc2nc(Cl)c3cc(C(=O)NC(C)CCc4ccco4)sc3c2c1 (stereo not given)	3.8	.
COc1ccc(NC(=O)N(C)C[C@@H]2Oc3c(NC(=O)Nc4ccccc4)cccc3C(=O)N([C@@H](C)CO)C[C@@H]2C)cc1	-2.7	.
COc1ccc(NC(=O)Nc2cccc3c2O[C@H](CN(C)CC2CC2)[C@@H](C)CN([C@@H](C)CO)C3=O)cc1	3.7	.

Given with two lines to a compound: two of the compounds above
The line under a structure holds: BJeLR viability | A1 inhib
- COc1ccc(NC(=O)N(C)C[C@@H]2Oc3c(NC(=O)Nc4ccccc4)cccc3C(=O)N([C@@H](C)CO)C[C@@H]2C)cc1
→ -2.7 | .
- COc1ccc(NC(=O)Nc2cccc3c2O[C@H](CN(C)CC2CC2)[C@@H](C)CN([C@@H](C)CO)C3=O)cc1
→ 3.7 | .

This is a subset, so the mix of outcomes need not match the whole.
